Bioassay records: PubChem BioAssay, National Center for Advancing Translational Sciences (NCATS)
TrxR1 substrate = rat thioredoxin reductase 1 substrate activity | hit rate 0.01% among 390,000 | Potency, µM (series often up to 114 µM), for the others: top-dose activity change, negative = substrate turnover | O89049 | purified TrxR1 substrate turnover, NADPH consumption readout; further: on the % scale 0 is the no-effect control and ±100 the full control effect; nearly all actives have a fitted effect of over 50% in size
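Rat TrxR1, dispensed at 90 nM, was prereduced with 400 uM NADPH (final) for 5 min at ~22 deg C, then incubated with compound 15 min before 400 uM selenite. A first-read NADPH fluorescence drop versus no-compound background flagged substrates.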
Vif-APOBEC3G blk = Vif-A3G binding inhibition; Q9HC16; HeLa A3G-eYFP + Vif (tagged APOBEC3G with the HIV-1 protein that degrades it), YFP fluorescence, overnight; Potency, µM (highest dose often 46.1 µM), for inactives: at the top dose activity, negative = active, actives largely listed as inhibitors; hit rate 0.076% among 410,000;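 further: on the % scale 0 is the no-effect control and ±100 the full control effect; nearly all actives have a fitted effect of over 60% in size; hits raise eYFP signal because A3G escapes Vif-driven loss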
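HeLa cells stably expressing Vif and C-terminally eYFP-tagged A3G, seeded overnight at 37 deg C, then exposed to compound by pintool overnight at 37 deg C. Rise in yellow fluorescence (Ex 488/Em 500-530, Acumen) marks blocked Vif-driven A3G degradation.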
RGS4 inhibitor = blocks human RGS4-accelerated GTP hydrolysis; P49798; Transcreener GDP fluorescence polarization, RGS4-accelerated GTP hydrolysis; Potency, µM (doses to about 114 µM), for the others: top-dose activity change, negative = inhibition, usual class: inhibitors; hit rate 0.039% among 390,000; AID 504845; further: on the % scale 0 is the no-effect control and ±100 the full control effect; nearly all actives have a fitted effect of over 75% in size; some results filed as inactive show a strong effect at the top dose
Target sequence (P49798 whole entry, looked up): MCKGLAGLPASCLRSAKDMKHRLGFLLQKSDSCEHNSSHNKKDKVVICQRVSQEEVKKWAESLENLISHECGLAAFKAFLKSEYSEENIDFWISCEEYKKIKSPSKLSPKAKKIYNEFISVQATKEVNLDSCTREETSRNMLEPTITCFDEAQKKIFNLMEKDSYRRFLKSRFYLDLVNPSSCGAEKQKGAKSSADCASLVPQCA
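MLSMR compounds (23 nl, pin-transferred) preincubated 10 min at room temperature with a 500nM (2x) first reagent, then RGS4 at 900nM (2x) plus Transcreener GDP mix added; fluorescence polarization (620/688 nm) read before and after 90 min at 30 °C.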
rTrxR1 inhibitor = rat TrxR1 inhibition. AID 588453. Potency, µM (doses to about 114 µM), for the others: top-dose activity change, negative = inhibition, actives largely listed as inhibitors. recombinant rTrxR1, NADPH fluorescence consumption, selenite substrate. O89049. hit rate 1% among 390,000; further: on the % scale 0 is the no-effect control and ±100 the full control effect; nearly all actives have a fitted effect of over 65% in size
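Rat TrxR1 (90 nM in the dispensed reagent) was pre-reduced with 400 uM NADPH for 5 min at room temperature, then incubated with compound for 15 min. After 400 uM selenite was added, NADPH fluorescence (Ex 340/Em 450 nm) was followed for 8 min.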
USP1-UAF1 inh = blocks the human USP1/UAF1 deubiquitinase complex; O94782; recombinant USP1/UAF1, Ub-Rhodamine cleavage fluorescence; Potency, µM (doses to about 57.1 µM), inactives show at the top dose activity change, negative = inhibition, usual class: inhibitors; hit rate 0.23% among 390,000; further: on the % scale 0 is the no-effect control and ±100 the full control effect; nearly all actives have a fitted effect of over 60% in size; inactives centre near -12
Target sequence (O94782 whole entry, looked up): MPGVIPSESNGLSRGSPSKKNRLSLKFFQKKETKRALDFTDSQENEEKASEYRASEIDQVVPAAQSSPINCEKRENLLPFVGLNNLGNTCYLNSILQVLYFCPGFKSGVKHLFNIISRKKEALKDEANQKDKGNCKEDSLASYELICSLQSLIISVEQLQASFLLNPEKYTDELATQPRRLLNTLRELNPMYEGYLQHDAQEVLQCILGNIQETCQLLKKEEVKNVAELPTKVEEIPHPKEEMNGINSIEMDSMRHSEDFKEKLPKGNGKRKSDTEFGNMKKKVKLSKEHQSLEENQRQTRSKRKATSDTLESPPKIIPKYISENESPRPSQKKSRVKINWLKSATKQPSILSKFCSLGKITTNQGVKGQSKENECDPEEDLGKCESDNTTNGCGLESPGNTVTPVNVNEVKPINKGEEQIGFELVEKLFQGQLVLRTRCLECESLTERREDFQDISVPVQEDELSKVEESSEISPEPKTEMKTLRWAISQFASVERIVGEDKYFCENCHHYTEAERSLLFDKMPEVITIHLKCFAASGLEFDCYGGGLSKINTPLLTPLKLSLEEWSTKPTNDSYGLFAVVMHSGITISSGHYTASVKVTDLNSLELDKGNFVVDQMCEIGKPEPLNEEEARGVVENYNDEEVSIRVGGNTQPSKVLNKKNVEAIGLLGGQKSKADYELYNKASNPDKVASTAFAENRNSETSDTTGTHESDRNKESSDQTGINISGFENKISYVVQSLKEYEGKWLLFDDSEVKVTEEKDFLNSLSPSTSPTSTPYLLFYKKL
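USP1/UAF1 complex at 1 nM was preincubated with compound for 15 min at room temperature, then Ub-Rho substrate (150nM final) was added. Fluorescence (480/540 nm) was read kinetically, 6 reads every 60 seconds.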
Vif-APOBEC3F blk = blocks the Vif interaction with APOBEC3F; Potency, µM (top dose mostly 46.1 µM), inactives show at the highest dose activity, negative = active; HeLa A3F-eYFP + Vif (tagged APOBEC3F with the HIV-1 protein that degrades it), YFP fluorescence increase; hit rate 0.2% among 390,000; further: % of control where 0% means no effect; nearly all actives have a fitted effect of over 65% in size
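HeLa cells stably expressing Vif plus C-terminally eYFP-tagged A3F were seeded, incubated overnight at 37 deg C, dosed with compound, incubated overnight again at 37 deg C. Yellow fluorescence (Ex 488/Em 500-530) reported blocked Vif-mediated A3F-eYFP degradation.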
IDH1 R132H inh = blocks human mutant IDH1 R132H enzyme | Potency, µM (top dose mostly 76.6 µM), for the others: top-dose activity change, negative = inhibition, usual class: inhibitors | O75874 | IDH1-R132H enzyme, NADPH consumption, diaphorase/resazurin fluorescence | hit rate 0.093% among 390,000 | AID 602179; further: on the % scale 0 is the no-effect control and ±100 the full control effect; nearly all actives have a fitted effect of over 65% in size
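IDH1-R132H (0.5 ug/mL dispensed) in pH 7.5 Tris buffer was preincubated 30 min with compound, then given a substrate mix of 0.016 mM NADPH and 2 mM alpha-KG for 80 min at room temperature; remaining NADPH was read by diaphorase/resazurin fluorescence.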
RXFP1 ag = agonists of human relaxin receptor RXFP1. AID 2676. Potency, µM (series often up to 57.5 µM), without a hit: at the top dose activation, actives largely listed as activators. hit rate 0.3% among 370,000. HEK293T-RXFP1 cAMP TR-FRET, 30 min; response scale: percent of porcine relaxin response, buffer zero. Q9HBX9; further: on the % scale 0 is the no-effect control and ±100 the full control effect; nearly all actives have a fitted effect of over 60% in size; many of its hits are not listed in these tables
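HEK293 cells stably expressing RXFP1, treated 30 min at 37C with compounds plus PDE4 inhibitor Ro 20174; cAMP measured by HTRF TR-FRET. Normalized to buffer and 29 nM porcine relaxin; EC50 by Hill fit.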
An asterisk follows results filed as active; ? = inconclusive; nt = no result given; & = joins results of further samples; [ ] = another dose, or the depositor's remark. The call rests on the fitted dose curve; in most records, active means well fitted curve in the direction sought with a large enough effect; inconclusive means small, poorly fitted or top-dose-only effect, or another doubt; inactive means no such curve, though single readings can be large; an effect the other way counts as inactive or inconclusive. Potency means the concentration at half of the fitted maximal effect.

Short forms – A = TrxR1 substrate; B = Vif-APOBEC3G blk; C = RGS4 inhibitor; D = rTrxR1 inhibitor; E = USP1-UAF1 inh; F = Vif-APOBEC3F blk; G = IDH1 R132H inh; H = RXFP1 ag
Compound: Cc1ccc(NC(=S)NC(=O)c2ccc(-c3ccccc3)cc2)c(C)c1
  A: 7%[57.1 µM]	B: -2%	C: -24%	D: 7%[57.1 µM]	E: -11%	F: 6%	G: 1%	H: 2.8%

Compound: COc1ccc(CN(Cc2cccn2C)S(=O)(=O)c2ccccc2)cc1
  A: -6%[57.1 µM]	B: 0%	C: -32%	D: -6%[57.1 µM]	E: -18%	F: 5%	G: 6%	H: 0.6%

Compound: Cc1ccc([N+](=O)[O-])cc1NC1CC(O)C(CO)O1 (stereo not drawn)
  A: 0%	B: 0%	C: 14%	D: 9%	E: -9%	F: 5%	G: 1%	H: -1.1%

Compound: O=S(=O)(NC1CCCCC1NCc1ccco1)c1ccc(Cl)cc1 (stereo not drawn)
  A: 10%	B: 0%	C: 14%	D: 18%	E: 4%	F: -1%	G: 6%	H: -0.3%

Compound: CCC(C)n1c(C)nc2c(c1=O)c1nc3ccccc3nc1n2CCC1=CCCCC1 (stereo not drawn)
  A: -12%	B: -2%	C: 51%	D: -13%	E: -4%	F: -4%	G: 1%	H: 0.0%

Compound: CC(=O)NS(=O)(=O)c1ccc(NC(=O)/C=C/c2ccco2)cc1
  A: -6%[57.1 µM]	B: 2%	C: -17%	D: -4%	E: -2%	F: 1%	G: -6%	H: -0.2%

Compound: CC(=O)OCP(C)(=O)COC(C)=O
  A: 11%[57.1 µM]	B: 0%	C: 8%	D: 13%[57.1 µM]	E: 12%	F: 1%	G: 4%	H: 0.7%

Compound: O=S(=O)(c1cccc2nsnc12)N1CCN(c2ncccn2)CC1
  A: 5%[57.1 µM]	B: 0%	C: -16%[11.4 µM]	D: 9%	E: -15%	F: 7%	G: 3%	H: -2.1%

Compound: CCCC1=C(C(=O)OCC)C(c2ccc(OC)c(CSc3ccccn3)c2)C(C#N)=C(N)O1 (stereo not drawn)
  A: -5%	B: 4%	C: -53%	D: ?	E: -24%	F: -21%	G: 4%	H: 1.1%

Compound: Cc1cc(C)nc(/N=C(\N)Nc2ccc(F)c([N+](=O)[O-])c2)n1
  A: -10%	B: -10%	C: 38%	D: -23%	E: -7%	F: -10%	G: 15%	H: 0.4%

Three of the compounds above, with values under each structure.
Values run as follows: TrxR1 substrate	Vif-APOBEC3G blk	RGS4 inhibitor	rTrxR1 inhibitor	USP1-UAF1 inh	Vif-APOBEC3F blk	IDH1 R132H inh	RXFP1 ag
- CC(=O)OCP(C)(=O)COC(C)=O
  11%[57.1 µM]	0%	8%	13%[57.1 µM]	12%	1%	4%	0.7%
- Cc1ccc(NC(=S)NC(=O)c2ccc(-c3ccccc3)cc2)c(C)c1
  7%[57.1 µM]	-2%	-24%	7%[57.1 µM]	-11%	6%	1%	2.8%
- CC(=O)NS(=O)(=O)c1ccc(NC(=O)/C=C/c2ccco2)cc1
  -6%[57.1 µM]	2%	-17%	-4%	-2%	1%	-6%	-0.2%

Additional entries follow:
Short forms – A = TrxR1 substrate; B = Vif-APOBEC3G blk; C = RGS4 inhibitor; D = rTrxR1 inhibitor; E = USP1-UAF1 inh; F = Vif-APOBEC3F blk; G = IDH1 R132H inh; H = RXFP1 ag
Compound: Cc1c(-c2ccc(F)cc2)nc(N)c(C#N)c1-c1cccnc1
  A: 2%[57.1 µM]	B: -3%	C: -4%	D: 16%[57.1 µM]	E: -5%	F: 6%	G: 11%	H: 2.3%

Compound: O=C(NN=C1CCCCCCCCCCC1)c1cccc(S(=O)(=O)N2CCOCC2)c1
  A: 18%	B: 1%	C: 3%	D: -8%	E: -14%	F: -23%	G: 2%	H: 5.9%

Compound: Cc1ccc(C)c(NC(=O)CN(C)C(=O)C2COc3ccccc3O2)c1 (stereo not drawn)
  A: 4%	B: 1%	C: -16%	D: 5%	E: -17%	F: -4%	G: 2%	H: -0.1%

Compound: Cc1sc2ncnc(N3CCN(c4ncccn4)CC3)c2c1C
  A: -4%	B: -11%	C: 11%	D: -9%[11.4 µM]	E: -6%	F: -1%	G: 2%	H: 2.0%

Compound: CCOCCCn1c(=N)c(C(=O)NCc2ccc3c(c2)OCO3)cc2c(=O)n3cccc(C)c3nc21
  A: 17%	B: 3%	C: 15%	D: 16%	E: -18%	F: -1%	G: 13%	H: 0.3%

Compound: O=c1cc(-c2ccccc2)oc2ccc(O)cc12
  A: -4%	B: -16%	C: -26%	D: -4%	E: -15%	F: -8%	G: 1%	H: 1.0%

Compound: CCN(C(=O)COc1cc(=O)n(CC)c2ccccc12)c1cc(Cl)ccc1OC
  A: -3%[57.1 µM]	B: -8%	C: -12%	D: 6%[57.1 µM]	E: -14%	F: 11%	G: -21%	H: 3.0%

Compound: NC(=O)C1CCN(C(=O)c2ccccc2SCC(=O)NCC2CCCCC2)CC1
  A: -8%	B: 3%	C: 10%	D: -8%	E: -9%	F: -8%	G: 0%	H: -0.3%

Compound: COc1cc2cc(-c3ccc(O)cc3O)nc(C)c2cc1OC
  A: -10%	B: -22%	C: -7%	D: 5%	E: -17%	F: -15%	G: ?	H: -2.2%

Compound: OCc1cnc(SCc2ccccc2)n1Cc1ccccc1
  A: -5%	B: 0%	C: -3%	D: 9%	E: -17%	F: 14%	G: 9%	H: 1.5%

Compound: CC(=O)NC(c1cccs1)c1cc(Br)c2cccnc2c1O (stereo not drawn)
  A: nt	B: -5%	C: nt	D: nt	E: nt	F: nt	G: nt	H: -0.5%

Compound: Cc1onc(-c2ccccc2Cl)c1C(=O)NNC(=O)C1CCN(Cc2ccccc2)CC1
  A: 6%	B: -2%	C: -4%	D: 31%	E: -20%	F: -1%	G: -4%	H: 2.1%

Compound: O=C(c1ccc(Cn2cc([N+](=O)[O-])cn2)o1)N1CCCC1
  A: 7%	B: -3%	C: 24%	D: 12%	E: -15%	F: 1%	G: 0%	H: 3.6%

Compound: Cc1ccc(SCc2nc(-c3cccnc3)no2)cc1
  A: 8%[57.1 µM]	B: 1%	C: -21%	D: 19%[57.1 µM]	E: -8%	F: -14%	G: 0%	H: -0.8%

Compound: Cc1cc(-c2ccc(C)c(S(=O)(=O)NCCCN3CCCCCC3)c2)on1
  A: -3%	B: 2%	C: 17%[11.4 µM]	D: -7%	E: -13%	F: -10%	G: -15%	H: -1.2%

Compound: O=C(N/N=C/c1ccc(O)c2ncccc12)c1cccc(Br)c1
  A: 1%	B: -18%	C: -11%	D: 18%	E: -23%	F: -26%	G: -8%	H: -3.3%

Compound: Cc1ccc(NC(=O)c2sc(-n3nc(C)c(Cc4ccc5c(c4)OCO5)c3C)nc2C)cc1Cl
  A: -5%	B: 1%	C: -12%	D: -14%	E: -8%	F: 2%	G: -5%	H: 13%

Compound: CC(C)[C@@H]1COC(c2cccc(C3=N[C@H](C(C)C)CO3)c2)=N1
  A: -7%	B: 2%	C: 19%	D: 4%	E: 10%	F: -1%	G: 8%	H: -0.8%

Compound: CCN(c1ccc(NC(=O)COC(=O)c2ccc(S(=O)(=O)N3CCCC3)cc2)cc1)C(C)C
  A: 3%	B: -2%	C: 3%	D: 13%	E: -3%	F: -1%	G: 4%	H: 0.1%

Compound: CCOc1cc(C(=O)N2CCN=C2SC)cc(OCC)c1OCC
  A: 8%	B: 0%	C: -41%	D: 15%	E: -22%	F: 7%	G: 8%	H: 2.9%

Compound: CCOc1ccc(/C=N/NC(=O)Cc2cccs2)cc1
  A: -2%	B: -2%	C: 6%	D: 5%[57.1 µM]	E: -7%	F: -17%	G: 2%	H: 4.3%

Compound: O=Cc1cccn1Cc1ccccc1[N+](=O)[O-]
  A: -1%	B: 1%	C: 31%	D: 6%	E: -15%	F: 1%	G: -4%	H: 1.6%

Compound: COc1ccc(CNc2ncnc3cc(Cl)ccc23)cc1
  A: 7%[57.1 µM]	B: 0%	C: -5%	D: -1%[57.1 µM]	E: -5%	F: -5%	G: 9%	H: 0.2%

Compound: CCC(NC(=O)C1C2C=CC(C2)C1C(=O)O)c1ccc(C)cc1 (stereo not drawn)
  A: 1%	B: -2%	C: -15%	D: 10%[57.1 µM]	E: -27%	F: 8%	G: 6%	H: -0.5%

Compound: CC1(C)CC2CC(C)(CN2C(=O)c2ccc([N+](=O)[O-])cc2[N+](=O)[O-])C1 (stereo not drawn)
  A: 8%	B: 7%	C: -11%	D: 34%	E: -21%	F: -2%	G: -3%	H: -4.8%

Compound: Cc1cccc(C(=O)NC(=S)Nc2ccc(S(=O)(=O)N3CCCCC3)cc2)c1
  A: 11%[57.1 µM]	B: 2%	C: 5%[11.4 µM]	D: -39%	E: -20%	F: 3%	G: 0%	H: 0.0%

Compound: CSc1nc(N2CCOCC2)c2c3c(sc2n1)CCC3
  A: 7%[57.1 µM]	B: -6%	C: -14%	D: -2%[57.1 µM]	E: -16%	F: 2%	G: 4%	H: 1.7%

Compound: COc1ccc(Nc2cc(C(=O)NC3CCCC3)c3ccccc3n2)c(OC)c1
  A: 0%&4%	B: -1%&-1%	C: -9%&2%	D: 13%&11%	E: -11%&-11%	F: 2%&2%	G: 6%&-11%	H: 0.9%&3.3%

Compound: COc1ccc(NC2CS(=O)(=O)CC2NCc2ccccc2)cc1 (stereo not drawn)
  A: 10%[57.1 µM]	B: 1%	C: -4%	D: 14%[57.1 µM]	E: -16%	F: 6%	G: 1%	H: -3.2%

Compound: CCCC(C)c1nnc(NC(=O)c2cc(C(=O)OC)cc([N+](=O)[O-])c2)s1 (stereo not drawn)
  A: -5%	B: 4%	C: ?	D: -12%	E: -22%	F: 1%	G: 1%	H: 1.3%

Compound: CCCCN1C(=O)N(c2nnc(C(C)(C)C)s2)C(O)C1c1ccc(C)cc1 (stereo not drawn)
  A: -7%	B: 0%	C: -7%	D: 22%	E: -25%	F: -28%	G: 1%	H: 3.1%

An excerpt, so the mix of outcomes need not match the whole.
